Compound activity deposited in PubChem BioAssay by National Center for Advancing Translational Sciences (NCATS).
GLA inh pH 4.5: inhibitors of human alpha-galactosidase A at pH 4.5. P06280. purified enzyme, 4-MU-alpha-Gal fluorescence, pH 4.5. activity change, negative = inhibition, % at 105 µM. 230,000 tested, under 10 active; inconclusive = small, poorly fitted or top-dose-only inhibition, or a rising curve; inactive = flat fitted curve, though single readings scatter; no compound was filed as active;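 further: 0% = full activity with enzyme and -100% = basal without enzyme; dose as in the result columns while the protocol names 77 µM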
miR-21 FLuc: raises the signal of a miR-21 reporter; HeLa miR-21 FLuc reporter, luciferase, 48 h; Potency, µM (series often up to 38.3 µM), for inactives: at the top dose reporter change, positive = more light; 340,000 tested, under 10 active; AID 2288; active = well fitted rising curve with a large enough effect; inconclusive = small, poorly fitted or top-dose-only effect; inactive = no such curve, though single readings can be large or run the other way;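 further: % of control where 0% means no effect; miR-21 action dims this reporter so a rising signal means less miR-21 action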
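Luminescence from a firefly luciferase reporter carrying a miR-21 binding site downstream, stably expressed under a CMV promoter in HeLa cells that make miR-21 endogenously, reports miRNA modulation after 48 h compound exposure up to approximately 40uM final.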
Rango-impB inh: Rango-importin beta binding inhibition; Q14974; Rango CFP/YFP FRET sensor + importin beta, 45 min; Potency, µM (highest dose often 92.2 µM), inactives show at the highest dose inhibition of complex formation; 340,000 compounds, 0.031% hits; active = rising FRET ratio curve, often small or poorly fitted; inconclusive = mostly compound fluorescence or quenching in the first reads; inactive = flat curves in all reads;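 further: potency means the concentration at half of the fitted maximal effect; 0% = DMSO wells and 100% = buffer wells lacking importin beta; nearly all actives have a fitted effect of over 15% in size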
Target sequence (Q14974 whole entry, looked up): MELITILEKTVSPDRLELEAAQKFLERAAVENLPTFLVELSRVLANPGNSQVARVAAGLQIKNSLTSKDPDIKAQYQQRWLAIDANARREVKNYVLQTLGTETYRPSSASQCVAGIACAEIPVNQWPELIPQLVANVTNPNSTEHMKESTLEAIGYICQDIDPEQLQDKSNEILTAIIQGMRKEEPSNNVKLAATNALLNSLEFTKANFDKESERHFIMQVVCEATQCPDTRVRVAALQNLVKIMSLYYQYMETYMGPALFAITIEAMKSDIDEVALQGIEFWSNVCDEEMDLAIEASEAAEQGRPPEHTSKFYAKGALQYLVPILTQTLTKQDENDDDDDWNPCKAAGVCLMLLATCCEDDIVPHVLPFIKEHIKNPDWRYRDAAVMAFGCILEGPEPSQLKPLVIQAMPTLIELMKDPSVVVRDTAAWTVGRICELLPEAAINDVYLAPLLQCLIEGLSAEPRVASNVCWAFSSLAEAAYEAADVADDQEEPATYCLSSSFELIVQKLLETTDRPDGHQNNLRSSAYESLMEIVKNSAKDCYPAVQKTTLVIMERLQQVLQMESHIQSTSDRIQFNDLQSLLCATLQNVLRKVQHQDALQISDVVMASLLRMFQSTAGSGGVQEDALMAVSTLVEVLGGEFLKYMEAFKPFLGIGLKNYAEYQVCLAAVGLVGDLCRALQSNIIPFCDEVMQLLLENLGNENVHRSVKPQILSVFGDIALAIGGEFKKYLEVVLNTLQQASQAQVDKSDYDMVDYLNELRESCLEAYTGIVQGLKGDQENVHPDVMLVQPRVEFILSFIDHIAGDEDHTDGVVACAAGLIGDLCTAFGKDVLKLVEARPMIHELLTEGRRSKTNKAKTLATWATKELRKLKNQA
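Inhibition scored from the CFP 486 nm/YFP 530 nm FRET ratio 45 min after adding 0.125 microM importin beta to 50 nM Rango biosensor preincubated 5 min with compound (room temperature, PBS with DTT, Tween-20, BSA). No-importin wells as positive control.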
Rango dissoc inh: inhibitors of RanGTP-induced Rango-importin beta complex dissociation | 340,000 compounds, 0.071% hits | Potency, µM (highest dose often 46.1 µM), for inactives: at the top dose activity change, negative = inhibition | O95149+P62826 | Biochemical FRET Rango-importin beta, RanGTP-induced dissociation | AID 540253; active means falling FRET ratio curve, often poorly fitted, with flat reads before Ran was added; inconclusive means other falling curves, or compound fluorescence or quenching; inactive means flat or rising ratio curve;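 further: potency means the concentration at half of the fitted maximal effect; % of control where 0% means no effect; nearly all actives have a fitted effect of over 45% in size; -100% = wells without RanGTP and RCC1; the record marks most hits as doubtful in a second field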
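Compounds preincubate 5 min with complex of recombinant Rango and importin beta in PBS with 1 mM DTT. Ran (0.6 uM) loaded with 2 mM GTP plus 0.2 uM RCC1 starts dissociation; FRET is recorded 45 min later.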
* = called active by the depositor; ? = inconclusive; . = not tested or not shown; & = joins results of further samples. The list is partial, so the mix of outcomes need not match the whole.

The line under a structure holds: GLA inh pH 4.5, miR-21 FLuc, Rango-impB inh, Rango dissoc inh
- CC(=O)Cc1nsc(NC(=O)c2ccccc2Cl)n1
→ -5, -17%, 3.9%, 23%
- O=C1C2C3C=CC(O3)C2C(=O)N1N=Cc1ccc2c(c1)OCO2 (stereo not drawn)
→ ., ., -0.4%, -2%
- O=C(O)CN1C(=O)/C(=C\c2cn(-c3ccccc3)nc2-c2ccccc2)SC1=S
→ ., -3%, 1.3%, 2%
- COc1ccc(NC(=O)C2C3CCC(O3)C2C(=O)O)cc1OC (stereo not drawn)
→ ., -14%, 3.4%, 12%
- N#Cc1sc2nc(-c3ccccc3)cc(C(F)(F)F)c2c1N
→ 8, -2%, 7.0%, -6%
- Cn1c(=O)c(Cc2ccccc2)c(O)c2ccccc21
→ 10, -2%, 2.7%, -5%
- Nc1nonc1C(=O)NCCNCc1ccccc1OCc1ccc(F)cc1
→ 3, 7%, -2.0%, -1%
- COc1ccc(-n2c(SCC(=O)N3CCOCC3)nc(O)c(Cc3ccccc3)c2=O)cc1
→ 4, 4%, 4.5%, 9%
- CC(=O)c1c(COC(=O)c2ccccc2Cl)nc2ccccc2[n+]1[O-]
→ 6, 0%, 2.7%, 10%
- COc1cccc(-c2cc(C(F)(F)F)nc(N3CCC(C)CC3)n2)c1
→ 0, -1%, 3.6%, -2%
- COc1ccc(CC(=O)OCC(=O)NC2CCCCC2)cc1
→ ., ., -1.0%, -1%
- O=C(Nc1ccccc1)/C(=C\c1cccs1)NC(=O)c1ccccc1
→ 9, -6%, 4.4%, 3%
- C=CCN1C(=NC(=O)COc2ccc(Cl)cc2)SC2CS(=O)(=O)CC21 (stereo not drawn)
→ ., -1%, 2.9%, -2%
- CCOc1cc(/C=C2\SC(=S)N(N3CCOCC3)C2=O)ccc1O
→ -2, 0%, 2.5%, 8%
- CCN1CCOC(CC(=O)Nc2ccc([N+](=O)[O-])cc2)C1=O (stereo not drawn)
→ -7, -7%, 0.2%, 9%

The line under a structure holds: GLA inh pH 4.5, miR-21 FLuc, Rango-impB inh, Rango dissoc inh
- Cc1ccc(C)c(NC(=S)NCc2ccccc2)c1
→ ., 6%, 0.3%, -4%
- CCc1ccc(CNC(=O)CCC(=O)N2Cc3cccc(OC)c3Oc3ncccc32)cc1
→ ., 1%&-2%, 2.9%, -1%
- COc1ccc(-c2noc(N3CCC(C(=O)NCCCN4CCC(C)CC4)CC3)n2)cc1
→ ., 4%, 6.9%, 1%
- Cc1ccc(NC(=O)CCN2C(=O)c3cccc4cccc(c34)C2=O)cc1
→ 6, 3%, -0.2%, 10%
- CCOC(=O)c1c(S(=O)(=O)NCc2ccc(C)o2)c(C)n(C)c1C
→ ., 0%, 5.3%, -4%
- Cc1ccc(S(=O)(=O)N2CCC(C(=O)OCC(=O)N(C)C3CCCCC3)CC2)cc1C
→ ., ., -3.0%, 1%
- CC1CC(C)CN(c2ccc(-n3cnnn3)cc2[N+](=O)[O-])C1 (stereo not drawn)
→ -6, -9%, ?, -7%
- Clc1ccc(/C=C/c2nc3ccccc3[nH]2)cc1
→ -6, 22%, -3.2%, 9%
- CN(C)S(=O)(=O)c1ccc(S(=O)(=O)N2CCN(CCC#N)CC2)cc1
→ 5, -6%, -1.7%, -7%
- CN(CC(=O)Nc1ccccc1Cl)C(=O)c1cc(C2CC2)nn1-c1ccccc1
→ ., ., 4.6%, -22%
- O=C(COC(=O)/C=C/c1cccc(Br)c1)NCCC1=CCCCC1
→ 15, -1%, -3.3%, 1%
- COc1cc(CNCc2ccccn2)ccc1OCc1ccccc1Cl
→ 3, -6%, ?, -4%
- CC(C)NC(=O)CN1CCC(c2nc3ccccc3[nH]2)CC1
→ ., 2%, -1.6%, 0%
- CCOC(=O)N1CCN(/C=C(\C#N)c2nc3ccccc3s2)CC1
→ 5, -28%, ?, ?
- CCOC(=O)C1(c2ccccc2)NC(c2ccccc2C)C2C(=O)N(c3ccc4c(c3)OCO4)C(=O)C21 (stereo not drawn)
→ 0, -4%, ?, 20%

The line under a structure holds: GLA inh pH 4.5, miR-21 FLuc, Rango-impB inh, Rango dissoc inh
- c1ccc2c(c1)CCN(C1CCCCC1)C2
→ ., 3%, 1.4%, 4%
- CCCCn1c(N)c(N(CCOC)C(=O)COC(=O)c2ccccc2NCCO)c(=O)[nH]c1=O
→ ., ., -3.7%, 1%
- O=C(Nc1cccc(O)c1)C(=O)Nc1ccccn1
→ 7, 29%, -1.4%, 11%
- O=C(O)CC(NC(=O)COc1ccccc1)c1cccc([N+](=O)[O-])c1 (stereo not drawn)
→ 9, -1%, 0.3%, -3%
- NS(=O)(=O)c1ccc(CCNC(=O)c2cccc(OC(F)F)c2)cc1
→ -4, 0%, 6.3%, 1%
- COc1cc2c(cc1OC)C(c1ccccc1OC(C)C)CC(=O)N2 (stereo not drawn)
→ ., -4%, 0.2%, 11%
- O=C(NCC1OCCc2ccccc21)c1ccco1 (stereo not drawn)
→ 8, -21%, 0.0%, 4%
- CN(C)S(=O)(=O)c1ccc(N2CCCC2)c(C(=O)N2CCC(C(N)=O)CC2)c1
→ ., ., ?, -9%
- FC(F)(F)c1cc(CCN2C(=S)NC[C@@H]2CC2CCCCC2)cc(C(F)(F)F)c1
→ -27, 11%, 0.0%, -7%
- COC(=O)CSc1nnc(-c2ccccn2)n1N
→ -5, -2%, 7.1%, -11%
- Cc1cc(Cl)nc(-c2ccccc2O)n1
→ -12, 3%, 0.0%, -6%
- COC(=O)c1ccc(NC(=S)NC2CCCCC2)cc1
→ 2, -22%, 3.7%, -9%
- Cn1c(=O)c2c(ncn2CC(=O)N2CCc3ccccc3C2)n(C)c1=O
→ 0, -1%, 0.7%, 3%
- Cc1ccccc1CCN1CCCC(CN(C)CC(C)(C)C)C1 (stereo not drawn)
→ ., 4%, -4.1%, 3%
- O=C1C=C(c2ccccc2)C[C@@H](c2ccc3c(c2)OCO3)C1
→ ., ., 2.6%, 9%

The line under a structure holds: GLA inh pH 4.5, miR-21 FLuc, Rango-impB inh, Rango dissoc inh
- COc1ccc(Cl)cc1NC(=O)C/C(C)=N/NC(=O)c1ccc(O)cc1
→ ., -29%, 4.2%, -14%
- Cc1ccc(NC(=O)CCc2ccc(C)o2)cc1
→ ., -13%, -0.5%, -8%
- Cn1c(Nc2ccc(Cl)cc2)cc(=O)n(C)c1=O
→ ., -4%&-9%, 4.7%, 0%
- CCN(CC)S(=O)(=O)c1ccc(C)c(NC(=O)CSc2nnnn2C)c1
→ ., ., -5.6%, 0%
- COc1ccc(-n2c(=O)c(CCC(=O)NCCc3ccccc3F)nc3ccccc32)cc1
→ ., ., ?, -14%
- CC(=O)Nc1ccc(NC(=O)CCCSc2nc3ccccc3[nH]2)cc1
→ 8, -4%, -3.7%, 10%
- COc1cc(S(=O)(=O)N2CCOCC2)ccc1NC(=O)CN1c2cccc3cccc(c23)S1(=O)=O
→ 4, -8%, 2.5%, 1%
- Cc1ccc(/C(O)=C/c2nc3ccccc3oc2=O)cc1
→ 2, -7%, 0.1%, -3%
- COc1cccc2[nH]c(C(=O)NCCCN3CCCC3=O)cc12
→ ., 1%, 0.2%, 7%
- CCCN1CNc2c(c(=O)[nH]c(=S)n2CCc2ccccc2)C1
→ 5, 0%, -0.2%, -6%
- COc1ccc(CCNCC(O)c2ccccc2)cc1 (stereo not drawn)
→ 1, -1%, -1.7%, -3%
- Cc1ccc(CNC(=O)CNC(=O)[C@@H]2Cc3ccccc3CN2C(=O)OC(C)(C)C)cc1
→ ., 6%, 0.8%, -4%
- Cc1[nH]c2ccccc2c1/C=C/c1cc[n+](C)cc1
→ -8, 20%, ?, ?
- Cc1nn(CC(=O)NCCCN2CCCC2=O)c(C)c1[N+](=O)[O-]
→ ., ., 1.9%, 19%
- Cc1cc(C)c(NS(=O)(=O)c2ccc3c(c2)NC(=O)C(C)C(=O)N3)c(C)c1 (stereo not drawn)
→ ., 0%, -0.6%, ?

The line under a structure holds: GLA inh pH 4.5, miR-21 FLuc, Rango-impB inh, Rango dissoc inh
- O=S(=O)(c1cccc(-c2nnco2)c1)N1CCCC1
→ 4, -4%, -3.9%, -9%
- CCCNS(=O)(=O)c1cc(Br)cc2c1N(C(=O)CC)CC2
→ 2, -4%, 3.8%, -7%
- CCN(CC)c1ccc(NC(=O)Cn2c(C(C)NC(=O)c3ccc(C)cc3)nc3ccccc32)cc1 (stereo not drawn)
→ 11, -4%, -0.2%, 0%
- CCOC(=O)c1[nH]c(C)c(C(=O)/C=C/c2ccc(C(=O)O)cc2)c1C
→ ., -3%, 3.0%, 0%
- CCCN1CCC(NCc2cn(C)nc2-c2ccc(Oc3ccccc3)cc2)CC1
→ -17, 26%, 0.0%, -7%
- Cc1nc2ccccc2c2oc(C(=O)N3CCC(N4CCCCC4)CC3)cc12
→ 9, -13%, 2.3%, 1%
- CCN1CCN(C(=O)/C=C\C(=O)O)CC1
→ 6, 0%, 7.7%, 3%
- OCCC1CN(Cc2ccc3ncccc3c2)CCN1Cc1ccccc1 (stereo not drawn)
→ 5, -3%, -2.0%, 0%
- O=C(c1ccco1)N1CCN(S(=O)(=O)c2ccc(C3CCCCC3)cc2)CC1
→ -6, 2%, 2.2%, 6%
- CC(C)N1CCN(Cc2cnc(-c3ccccc3)s2)CC1CCO (stereo not drawn)
→ -5, -4%, ?, ?
- CCOC(=O)C1CCN(C(=O)/C=C/c2ccc(S(=O)(=O)N3CCOCC3)cc2)CC1
→ ., ., -0.1%, 1%
- O=S(=O)(NNc1ccc(Cl)nn1)c1ccc(F)cc1
→ -2, -4%, -2.5%, 21%
- CCOC(=O)Cn1nc(-c2ccccc2)c2cnc3ccc(CC)cc3c21
→ 8, -1%, -0.7%, -3%
- COc1ccc(C2/C=C\CN(C(=O)c3ccccc3)CC(=O)N2Cc2ccc(F)cc2)cc1 (stereo not drawn)
→ 0, 9%, -4.9%, 7%
- C#CCNC(=O)C1=C[C@@H](c2ccc(C#C)cc2)C[C@@H](OCCCCO)O1
→ ., ., 2.6%, 13%

The line under a structure holds: GLA inh pH 4.5, miR-21 FLuc, Rango-impB inh, Rango dissoc inh
- Cc1ccc(S(=O)(=O)NC2c3cccc4cccc(c34)C2Sc2nncn2C)cc1 (stereo not drawn)
→ -7, 1%, 3.9%, 0%
- O=C(NC1CCCN(Cc2ccccc2F)C1)C1CCC1 (stereo not drawn)
→ ., 0%, 0.8%, 8%
- COC(=O)C1=NNC(C(=O)c2ccco2)C1c1ccccc1 (stereo not drawn)
→ 2, 5%, -0.6%, -7%
- Cc1ccc2nc(SCC(=O)NNC(=O)c3ccccc3)[nH]c2c1
→ 3, -7%, -0.2%, 0%
- Cc1cc2nnc(SCC(=O)OC(C)C)n2c2ccccc12
→ ?, 0%, -3.0%, 0%
- O=C1CCCc2sc3c(c2N1)CCCCC3
→ -13, 4%, -4.3%, 38%
- CCCn1nc2cc(C(=O)NCCc3cccs3)ccc2c1OCC
→ 7, -46%, -0.5%, 21%
- O=C(CCN1C(=O)C2CCCCC2C1=O)Nc1nc2c(F)cc(F)cc2s1 (stereo not drawn)
→ ., ., 3.2%, 26%
- c1ccc(CSc2cc3ccccc3[nH]2)cc1
→ ., ., 0.4%, -6%
- Cc1nc(CS(=O)(=O)c2ccccc2)cc(Sc2ccccc2Cl)n1
→ -13, -43%, -3.7%, -5%
- O=C(NCCCn1ccnc1)c1nc(Cn2cc(Br)cn2)no1
→ ., -2%, -1.4%, 8%
- Cn1c(=Nc2ccc(N3CCOCC3)cc2)ccc2ccccc21
→ -7, -3%, -1.2%, 0%
- CCNc1c(NC(C)=O)c(=O)oc2ccccc12
→ 1, 2%, -3.9%, 23%
- Cc1cccc(CSc2nc3c(c(=O)[nH]2)CCC3)c1
→ 1, 2%&-8%, 0.5%, 42%
- O=C(Cn1nnc(-c2ccccc2)n1)N1CCCCC1
→ ., -43%, 2.2%, -12%
- CC(=O)N1CCc2c(sc(NC(=O)CS(=O)(=O)c3ccc(F)cc3)c2C(N)=O)C1
→ ., ., ?, -25%
- CC(C)(C)C(=O)NC(=S)Nc1ccccc1C(N)=O
→ 7, -8%, 1.7%, 11%
